Screening data: PubChem, Johns Hopkins Ion Channel Center
KCNQ2 enhance = enhances the rat KCNQ2 potassium channel; AID 2239; 0.54% of 310,000 active; CHO-K1 KCNQ2, FluxOR thallium flux fluorescence; active compounds read high; B-score at 10 µM;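 active = fluorescence ratio B-score at least 3 SD of library B-scores, with initial fluorescence B-score within 3 SD, cut at about 5.3 in these data; same plate scores as AID 2156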;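 note: B-score of peak minus minimum over baseline fluorescence ratio after K+ and Tl+ stimulus; positive B-score means potentiation of KCNQ2 with more thallium influx and brighter signal; only the inactives scoring about 0 or higher are listed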
Target sequence (O88943 whole entry, looked up): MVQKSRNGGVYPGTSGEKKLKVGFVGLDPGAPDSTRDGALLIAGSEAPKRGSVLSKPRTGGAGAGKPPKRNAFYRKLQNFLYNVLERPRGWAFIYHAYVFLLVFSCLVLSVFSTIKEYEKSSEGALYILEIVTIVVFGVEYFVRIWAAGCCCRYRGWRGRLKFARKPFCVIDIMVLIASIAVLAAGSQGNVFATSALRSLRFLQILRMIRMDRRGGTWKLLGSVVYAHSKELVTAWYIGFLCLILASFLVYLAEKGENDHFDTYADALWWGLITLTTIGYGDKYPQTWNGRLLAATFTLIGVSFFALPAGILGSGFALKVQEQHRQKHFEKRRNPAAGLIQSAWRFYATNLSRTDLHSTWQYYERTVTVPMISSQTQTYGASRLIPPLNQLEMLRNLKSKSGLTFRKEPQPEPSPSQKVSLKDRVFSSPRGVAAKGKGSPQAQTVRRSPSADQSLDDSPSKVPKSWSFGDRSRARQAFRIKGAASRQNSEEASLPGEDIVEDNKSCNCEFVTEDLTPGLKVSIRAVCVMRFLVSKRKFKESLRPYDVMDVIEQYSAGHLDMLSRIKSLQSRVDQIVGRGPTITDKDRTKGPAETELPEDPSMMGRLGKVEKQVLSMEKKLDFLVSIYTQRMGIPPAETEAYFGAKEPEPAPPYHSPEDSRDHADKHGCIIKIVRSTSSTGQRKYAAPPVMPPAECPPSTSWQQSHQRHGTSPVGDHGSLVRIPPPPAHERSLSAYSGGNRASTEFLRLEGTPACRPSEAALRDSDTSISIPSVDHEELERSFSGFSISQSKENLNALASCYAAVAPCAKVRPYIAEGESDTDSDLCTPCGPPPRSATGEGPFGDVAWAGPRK
KCNQ2 enhance baseline = recorded beside KCNQ2 enhance, whose call it bears; B-score; compound at 10 µM; measured here: initial fluorescence intensity artifact check;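 brightness before thallium and not channel activity; 0 = typical well and far values either way flag optical interference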
Numbers without * were called inactive.

KCNQ2 enhance baseline	KCNQ2 enhance	molecule
2.39	0.84	CCOc1cccc(CN2CCC(N3CCC(C(=O)NCC4CCCO4)CC3)CC2)c1 (stereo not given)
0.01	1.48	COc1cc2c(cc1OC)C(c1cc3ccccc3oc1=O)=NC(C)(C)C2
0.61	0.03	CCOc1ccccc1-c1nc2c(C(C)(C)C)nn(C)c2c(=O)[nH]1
-0.95	0.45	CSc1ccccc1OCc1cc(C(=O)NC(C)c2cnn(C)c2)no1 (stereo not given)
0.41	0.76	CN(C)C(CNC(=O)Nc1cccc(Cl)c1)c1cccnc1 (stereo not given)
-0.27	0.67	C/C(N)=C(/C#N)C(=O)CSc1nnc(NC(C)C)s1
-2.5	0.83	CCOC(=O)C1(C(F)(F)F)N=C(C(F)(F)F)Nc2cc(C)c(C)cc21 (stereo not given)
-0.43	0.04	O=C(Nc1ncc(Cc2ccccc2Cl)s1)c1ccc(-c2cccc([N+](=O)[O-])c2)o1
-1.43	0.7	C=CCNC(=O)/C(=C/c1cccc([N+](=O)[O-])c1)NC(=O)c1ccccc1
1.2	0.52	Cc1c(C(=O)O)sc2nc(C)n(C)c(=O)c12
-1.02	0.24	Cn1c(CNC(=O)CNC(=O)Cc2ccccc2)cc(=O)n(C)c1=O
-1.52	1.88	Fc1ccc2c(c1)C(c1cccnc1)=NNC(c1cccs1)=N2
0.28	0.99	Cc1cccc(CCNC(=O)C2CCC(=O)N(Cc3ccccc3F)C2)n1 (stereo not given)
0.11	0.03	COc1cc(NC(=O)COC(=O)Cc2ccc(-c3ccccc3)cc2)cc(OC)c1
-1.75	0.29	O=[N+]([O-])c1cccc(-c2noc3c2-c2nc(Cc4cccc5ccccc45)sc2CC3)c1
0.38	0.36	CC(Sc1nnc(-c2ccccc2Br)o1)C(=O)N1CCOCC1 (stereo not given)
0.77*	5.33*	CCc1cc(SC#N)cc(CC)c1NC(=O)CCl
-1.23	1.36	CC1C(Br)C(=O)NC(=O)N1Cc1ccccc1 (stereo not given)
-1.44	0.11	COc1ccccc1/C=C(/C(=O)OCC(=O)Nc1ccc(N(C)C)cc1)c1ccccc1
-0.61	1.72	NCCCC[C@@H]1NC(=O)[C@H](CCC(=O)O)NC(=O)c2cc([N+](=O)[O-])cc(I)c2SC[C@@H](C(=O)NCC(N)=O)NC1=O

Filtered by structure, the compounds so far with a cyano group (2)
KCNQ2 enhance baseline	KCNQ2 enhance	molecule
-0.27	0.67	C/C(N)=C(/C#N)C(=O)CSc1nnc(NC(C)C)s1
0.77*	5.33*	CCc1cc(SC#N)cc(CC)c1NC(=O)CCl

New compounds follow:
KCNQ2 enhance baseline	KCNQ2 enhance	molecule
-1.04	0.86	COC(=O)C1=C(C)Nc2c(c(=O)n(C)c(=O)n2C)C1c1cccnc1 (stereo not given)
0.11	0.84	Cc1ccc(-c2noc(CCC(=O)NCC3CCN(Cc4cccc(C)c4)CC3)n2)cc1
-0.37	0.67	CC(=O)Nc1ccc(CN2CCC(Oc3ccc(C(=O)N4CCCC4)cc3)CC2)cc1
-0.32	0.67	CCn1c(SCC(=O)N2CCCC(C)C2)nnc1-c1ccc(S(=O)(=O)N2CCN(C)CC2)cc1 (stereo not given)
-0.27	0.44	COc1ccc(NC(=O)Cn2nnc(C(=O)NCCc3ccc(OC)c(OC)c3)c2N)c(OC)c1
0.07	1.31	CCOC(=O)c1c(C)n(C)c2ccc(OCC(O)CN3CCCCCC3)cc12 (stereo not given)
-0.78	3.47	Cc1cc(C)c2nc(SCC(=O)NNC(=O)c3ccco3)c(C)cc2c1
1.17	2	COc1cc(CCNC(=O)CCCn2c(=O)c3cccn3c3cccnc32)cc(OC)c1OC
-1.27	0.82	COc1ccc(CCN2CC(C(=O)OCC(=O)Nc3c(C)nn(-c4ccccc4)c3C)CC2=O)cc1OC (stereo not given)
-0.54	0.62	COc1ccc(S(=O)(=O)NCCNC(=O)N2CCOCC2)cc1
-0.83	0.44	Nc1nc(CSCCO)nc(Nc2ccc(F)cc2)n1
-1.7	0.08	O=C1NC(NS(=O)(=O)c2ccccc2)(C(F)(F)F)C(=O)N1CCc1ccccc1 (stereo not given)
-1.84	2.16	CC(Oc1ccc2c3c(c(=O)oc2c1)CCCC3)C(=O)NCc1ccccn1 (stereo not given)
-1.56	0.25	Cc1ccc(C)c(S(=O)(=O)N2CCN(C(=O)CSc3ccccc3)CC2)c1
0.5	0.09	CCOc1ccc(NS(=O)(=O)c2ccc(NS(=O)(=O)c3ccccc3)cc2)cc1
-1.35	0.07	CCn1c(-c2cc(Cl)ccc2OC)n[nH]c1=S
-0.48	0.24	COc1ccc(-c2nc3n(c2C)Cc2ccccc2-3)cc1
-0.51	0.11	COC(=O)c1c(NC(=O)CSc2nc(-c3ccco3)cc(C(F)(F)F)n2)sc2c1CCCC2
0.62	0.36	CC(C)CCn1c(CN2CCN(C(=O)c3ccco3)CC2)nc2c1c(=O)n(C)c(=O)n2C
-0.03	0.23	COc1cc(C(=S)N2CCOCC2)ccc1OC(=O)c1cc(OC)c(OC)c(OC)c1

Taken from above:
KCNQ2 enhance baseline result of CCn1c(-c2cc(Cl)ccc2OC)n[nH]c1=S = -1.35
KCNQ2 enhance result of COc1ccc(S(=O)(=O)NCCNC(=O)N2CCOCC2)cc1 = 0.62
KCNQ2 enhance result of CC(=O)Nc1ccc(CN2CCC(Oc3ccc(C(=O)N4CCCC4)cc3)CC2)cc1 = 0.67
KCNQ2 enhance baseline result of Nc1nc(CSCCO)nc(Nc2ccc(F)cc2)n1 = -0.83
KCNQ2 enhance result of COc1cc(CCNC(=O)CCCn2c(=O)c3cccn3c3cccnc32)cc(OC)c1OC = 2

More structures
KCNQ2 enhance baseline	KCNQ2 enhance	molecule
-0.14	0.06	Cc1cc(NC(=O)c2ccc(F)cc2)n(-c2ccccn2)n1
-0.07	1.18	COCc1nnc(SCC(=O)NC(C)c2ccccc2)n1-c1ccccc1 (stereo not given)
-1.04	0.24	CCCCSCc1[nH]c(=O)[nH]c1C(=O)CCCCC(=O)OCC
-0.15	1.41	Cc1cc(-c2nnc3sc(-c4ccc(Cl)cc4Cl)nn23)n[nH]1
0.23	2.15	CCOc1ccc(S(=O)(=O)N(C)CC(=O)N2CCCC2)cc1
1.7	0.67	CCC(=O)c1ccc(OCC(=O)Nc2cc(S(=O)(=O)N3CCCCC3)ccc2OC)cc1
2.02	1.31	O=C(N/N=C\c1cc2c(cc1[N+](=O)[O-])OCO2)c1cccs1
-1.5	0.37	COc1ccc(N2CCN(C(=O)Cn3nnc(-c4ccc(N(C)C)cc4)n3)CC2)cc1
0.78	0.26	Cc1ccc([N+](=O)[O-])cc1S(=O)(=O)NCCc1c(C)[nH]c2c(C)cccc12
-1.47	1.41	CCCCN(Cc1cc2cccc(C)c2[nH]c1=O)S(C)(=O)=O
-0.12	1.2	CCOC(=O)CSc1nnc(SCCN2C(=O)c3ccccc3C2=O)s1
-0.9	0.2	O=C(Nc1nnc(CC2=CCCCC2)s1)Nc1ccccc1F
0.16	0.55	CCCc1cc(C(=O)OC)c(NC(=O)CCCC(=O)O)s1
2.03	0.08	CC(=O)N1c2ccccc2S(=O)(=O)c2ccccc21
-0.88	0.55	COC(=O)CN1C(=O)[C@H]2[C@@H](c3ccc(C)o3)N3C(=O)CN(CCO)C(=O)[C@@]3(C)[C@H]2C1=O
-0.34	0.25	COCCNC(=O)C(c1ccc(C)cc1)N(C(=O)CCC(=O)Nc1ccccn1)c1ccccc1C (stereo not given)
-1.71	0.03	Cn1c(=O)c(C(=O)Nc2ncccn2)c(O)c2ccccc21
-0.77	0.21	COC(=O)CCC(=O)OC1(C)C(=O)C=C2C=C(C3CC3)N(CC3CC3)C=C2C1=O (stereo not given)
-1.41	0.1	COCCN(Cc1cc2cccc(C)c2n2nnnc12)C(=O)C(F)(F)F
-0.61	0.3	O=C(CCCCC(=O)Nc1ccc(F)cc1)Nc1ccc(F)cc1
-1.88	0.98	CCOC(=O)c1cc(S(=O)(=O)NC2CCN(C(=O)OCC)CC2)cn1C
0	0.03	CC(C)(C)NC(=O)/C(=C/c1ccco1)c1ccccc1
-0.12	0.17	CCN(CC(=O)NCc1cccs1)C(=O)/C=C/c1ccc(OC)cc1OC
2.52	0.16	CC(C)CCNC(=O)C1CCCCN1S(=O)(=O)c1ccc(F)cc1 (stereo not given)
0.24	0.04	COc1ccc(CCNC(=O)c2ccc(Cl)cc2Cl)cc1OC
-0.13	1.1	N#Cc1c(C(F)(F)F)cc(-c2ccco2)nc1SCc1ccncc1
-0.11	0.01	COc1ccccc1-c1nc(-c2cccc(C)c2)no1
0.45	1.3	Cc1nc(S(=O)(=O)Nc2ccc3c(c2)OCCO3)cn1C
-2.03*	5.95*	O=C(N/N=C\c1ccco1)Nc1cccc(Cl)c1
-0.67	0.21	COc1ccccc1N1CCN(C(=O)CCCC2=NS(=O)(=O)c3ccccc3N2)CC1
1.14	0.24	CNC(=O)C(=O)NCC1OCCCN1S(=O)(=O)c1cccs1 (stereo not given)
1.48	0.43	Cc1nc(SC(C)C)[nH]c(=O)c1Cc1ccccc1
-1.08	1.64	Clc1ccc(Nc2nc(-c3cccs3)cs2)nc1
-0.32	0.11	CCn1cc(C(=O)NCCCOC)c(=O)c2cc(S(=O)(=O)N(C)C3CCCCC3)ccc21
-1.43	0.47	CC(=O)NC(=S)Nc1cccc(S(=O)(=O)NC2=NCCC2)c1
1.31	0.98	CCCCn1c(N)c(N(CCOC)C(=O)C2CCN(C(=O)c3ccccc3C)CC2)c(=O)[nH]c1=O
-0.17	1.62	COc1ccc(-c2nc(CS(=O)CC(=O)NCCCN3CCCC3)c(C)o2)cc1OC (stereo not given)
-1.31	0.7	COCc1c(Br)c(C)nc(OCC(=O)N/N=C/c2ccc(C)o2)c1C#N
1.23	0.36	CC(NCC(c1ccco1)N1CCCCC1)C(=O)NC1CCCC1 (stereo not given)
0.02	3.27	O=C(Cn1nc(C(F)(F)F)c2c1CCC2)N1CCN(c2ccccc2)CC1

For reference, some entries already given.
KCNQ2 enhance baseline	KCNQ2 enhance	molecule
-2.03*	5.95*	O=C(N/N=C\c1ccco1)Nc1cccc(Cl)c1
-0.67	0.21	COc1ccccc1N1CCN(C(=O)CCCC2=NS(=O)(=O)c3ccccc3N2)CC1

Compound profiles, as listed above:
O=C(Cn1nc(C(F)(F)F)c2c1CCC2)N1CCN(c2ccccc2)CC1 is entered as KCNQ2 enhance baseline = 0.02; KCNQ2 enhance = 3.27
Cc1nc(SC(C)C)[nH]c(=O)c1Cc1ccccc1 is entered as KCNQ2 enhance baseline = 1.48; KCNQ2 enhance = 0.43

The results go on.
KCNQ2 enhance baseline	KCNQ2 enhance	molecule
-2.57	0.46	NC(=O)c1ccsc1NC(=O)COC(=O)CCOc1ccccc1
0.55	0.27	COc1cc2c(cc1OC)CN(C(=S)Nc1ccccc1)CC2
-0.35	1.17	CCOC(=O)N/N=C(/c1ccccc1)C1CCCCC1
0.37	0.03	COc1ccc(C2C(C(=O)N3CCCCC3)CCC(=O)N2c2cc(OC)c(OC)c(OC)c2)cc1 (stereo not given)
-0.38	1.15	CC(=O)NNc1nc(-c2ccccc2)cs1
-0.09	0.44	CC(C)(C)NCC(O)COCc1ccc(Cl)cc1 (stereo not given)
0.58	1.22	OC(C#CCCN1CCCCC1)(c1ccccc1)C1CCCCC1 (stereo not given)
-0.35	0.89	COC(=O)c1ccc(NC(=O)Nc2ccc3c(c2)OCO3)cc1
-0.39	0.05	O=C(CCn1nc(-c2ccc(Cl)cc2)c2ccccc2c1=O)NCC1CCCO1 (stereo not given)
-0.33	0.25	O=S1(=O)CCC(NC(=S)Nc2ccc3ccccc3c2)C1 (stereo not given)
0.58	0.62	O=C(Nc1nccs1)c1ccc(COc2ccccc2Cl)o1
1.61	0.28	O=C(Nc1ccc(F)cc1)NC1(C(=O)NCc2ccc3c(c2)OCO3)CCCCC1
0.87	1.41	CC(C)(C)c1csc(NC(=O)c2ccccc2O)n1
5.19	1.31	COc1ccc(/C=C2\C(=O)NC(=S)N2C(=O)c2ccc(F)cc2)cc1
-0.79	1.73	CCN(CC)S(=O)(=O)c1cccc(C(=O)Nc2nnc(C)s2)c1
1.68	0.85	CC(=O)CCC(=O)NC1CCCc2c1cnn2-c1ccc(C(C)(C)C)cc1 (stereo not given)
0.65	0.09	CCC(=O)Nc1ccccc1Nc1cc(C#N)c(C#N)cc1[N+](=O)[O-]
-0.06	0.69	CCCCn1c(=O)c2c(nc3n2CCCN3Cc2ccccc2)n(C)c1=O
-0.98	0.08	COC(=O)CCCCCCCCC(O)C[N+]1(C)CCOCC1 (stereo not given)
1.25	0.12	COC(=O)/C=C/C(=O)N1CCN(c2ccccc2C)CC1
-1.44	2.28	COc1ccc(Cn2c(C3CC3)nc3ccc(NC(C)=O)cc3c2=O)cc1
-0.5	0.36	COc1ccc(N(CC(=O)NCCSC2CCCCC2)S(=O)(=O)c2ccccc2)c(OC)c1
2.08	0.34	COc1ccc(C(=O)O)cc1S(=O)(=O)NCc1cccnc1
-0.39	0.89	CCOC(=O)c1c(N)sc(C(=O)N2CCCCC2)c1C
-1.28	0.75	COc1cc(C2CC(c3cccnc3)=NN2c2ccc(F)cc2)cc(OC)c1OC (stereo not given)
1.59	0.65	CC(=O)Oc1ccccc1C(=O)Nc1ccccc1
0.44	0.44	NS(=O)(=O)c1ccc(NC(=O)COC(=O)COc2ccc(Br)cc2)cc1
0.9	0.83	CCc1cc(-c2nc(N)ncc2-c2ccc(Br)cc2)c(O)cc1OC
-0.46	0.71	CC1CCN(C(=O)C2CCCCN2S(=O)(=O)c2cccc([N+](=O)[O-])c2)CC1 (stereo not given)
-0.53	0.49	CCOc1ccccc1/C=C/c1onc(C)c1S(=O)(=O)N1CCC(C(=O)N2CCCCCC2)CC1
-1.09*	6.18*	CC(=O)c1c(N2CCN(Cc3ccccc3)CC2)[nH]c(-c2ccccc2)nc1=S
1.84	0.86	CN1C(=O)C(O)(C2OC(C)(C)CCC2=O)c2ccccc21 (stereo not given)

Not all compounds are listed. The share of hits here may be higher or lower than overall.
